eIF4H inh – inhibitors of RNA binding by human eIF4H | Q15056 | inhibition, % at 35 µM | eIF4H fluorescence polarization binding assay | 290,000 compounds, 0.94% hits;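 active = 50% or more with normal probe brightness, or confirmed in later tests; about a fifth of its hits are not listed in these tables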;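 also: calls also rest on retests at 20 µM and on dose response follow-up; 0% = protein and probe with vehicle and 100% = probe without protein; strong numbers were not always called active; many hits fall short of the cut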
MT1-MMP act inh – MT1-MMP (human) activation inhibition. P50281. HT1080 RFP-PRO-GFP cells, GFP/RFP ratio fluorescence, overnight; percent of plate control window, DMSO zero. GFP/RFP ratio change, % at 20 µM. 360,000 compounds, 0.061% hits;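 active = GFP/RFP ratio change of at least 30% with cell ATP level not reduced by more than half and red fluorescence within 50% of control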; also: strong numbers were not always called active
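Material – HT1080 RFP-PRO-GFP cells · Control set – DMSO wells and RFP-L50D-GFP cells · Incubation – overnight cell settling, then overnight compound exposure, 37 °C, 5% CO2 · Compound dosing – single-point 20 µM compound, 1% DMSO · Read-out – GFP/RFP fluorescence ratio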
PABP polyA inh – blocks human PABP binding to poly(A) RNA; fluorescence polarization; inhibition, % at 35 µM; 290,000 compounds, 1% hits;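 active = 50% or more with normal probe brightness, or confirmed in later tests; about a fifth of its hits are not listed in these tables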;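 also: calls also rest on retests at 20 µM and on dose response follow-up; controls were probe without protein and protein plus probe with vehicle; some compounds called inactive have numbers as strong as hits; many hits fall short of the cut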
Target sequence (P11940 whole entry, looked up): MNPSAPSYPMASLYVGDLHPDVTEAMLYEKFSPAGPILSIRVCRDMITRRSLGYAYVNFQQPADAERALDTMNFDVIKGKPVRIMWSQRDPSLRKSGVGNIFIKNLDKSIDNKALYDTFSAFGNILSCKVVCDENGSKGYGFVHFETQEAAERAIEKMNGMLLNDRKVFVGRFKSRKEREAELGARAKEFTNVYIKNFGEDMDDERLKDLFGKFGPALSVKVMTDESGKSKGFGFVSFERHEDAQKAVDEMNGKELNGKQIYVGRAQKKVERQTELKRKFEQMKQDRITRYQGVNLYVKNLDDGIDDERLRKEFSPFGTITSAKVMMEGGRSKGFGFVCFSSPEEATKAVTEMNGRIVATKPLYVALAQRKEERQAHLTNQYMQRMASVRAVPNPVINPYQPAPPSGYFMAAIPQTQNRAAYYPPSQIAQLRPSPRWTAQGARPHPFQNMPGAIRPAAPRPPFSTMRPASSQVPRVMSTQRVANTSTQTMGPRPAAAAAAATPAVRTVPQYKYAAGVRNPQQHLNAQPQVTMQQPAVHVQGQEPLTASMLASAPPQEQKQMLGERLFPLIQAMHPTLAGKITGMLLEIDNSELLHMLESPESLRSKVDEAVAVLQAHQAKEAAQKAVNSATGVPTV
HIV Env fusion – HIV envelope-mediated fusion inhibition; HeLa-JRFL Env/CEM21 cell fusion, luciferase; inhibition, % at 12.3 µM; 360,000 compounds, 1.1% hits;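 active = mean replicate inhibition score of at least 50 and every replicate individually at or above 50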;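 also: 0% = plate neutral controls and 100% = maraviroc near 300 nM; one replicate is shown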
Yeast UUG start – modulators of start codon recognition fidelity in yeast; S. cerevisiae UUG-firefly luciferase reporter, luminescence/redox ratio; activity score, % at 18.7 µM; 350,000 compounds, 0.13% hits;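 active = replicate mean at a twofold rise or more, about +100% in these data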;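 also: firefly luciferase made from a UUG start codon reports start codon fidelity; reporter light over untreated wells divided by growth signal over untreated wells; some hits fall short of that in this replicate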
Rce1 inh – yeast Ras-converting enzyme inhibition; yeast membranes, quenched prenylated peptide cleavage fluorescence; calls only; 290,000 compounds, 0.27% hits;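 active = fall in fluorescence gain of 50% or more versus controls, with final raw signal at or below 3038400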;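 also: plate controls were neutral control wells for no effect and wells lacking membranes for full effect; tested at 10 µM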
Target sequence (Q03530 whole entry, looked up): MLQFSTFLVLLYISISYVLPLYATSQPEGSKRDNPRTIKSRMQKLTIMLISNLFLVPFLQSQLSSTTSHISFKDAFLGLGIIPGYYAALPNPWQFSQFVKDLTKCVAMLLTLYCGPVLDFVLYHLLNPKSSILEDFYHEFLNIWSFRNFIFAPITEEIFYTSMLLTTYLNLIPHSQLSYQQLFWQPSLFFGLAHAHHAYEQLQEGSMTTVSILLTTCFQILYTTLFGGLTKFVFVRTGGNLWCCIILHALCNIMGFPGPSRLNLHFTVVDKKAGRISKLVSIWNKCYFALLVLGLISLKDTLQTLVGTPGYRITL
CSC inhib – blocks cancer stem cells; inhibition, % at 7.5 µM; 300,000 compounds, 1.1% hits; cancer stem cell-like cells viability, luminescence; AID 2717;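 active = mean at 75% or more and at least half the replicates too; tested in HMLE shEcad cells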;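 also: 0% = median of negative and 100% = median of positive control wells; the first replicate is given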
MT1-MMP act inh RFP – recorded beside MT1-MMP act inh, whose call it bears; RFP signal change, %; measured here: RFP expression control read;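 0 = vehicle wells; hits needed this value within 50% of zero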
* = called active by the depositor; i = inactive; · = not tested or not shown. A portion of the library; rates above refer to the full screens.

SMILES	eIF4H inh	MT1-MMP act inh	MT1-MMP act inh RFP	PABP polyA inh	HIV Env fusion	Yeast UUG start	Rce1 inh	CSC inhib
CC1Cc2nc(SCC(=O)Nc3ccc(F)cc3F)n(C)c(=O)c2S1 (stereo unspecified)	-4	-8	-4	-1	6	-3	i	5
CCCCNC(=S)Nc1ccc(-c2nc3ccc(C)cc3s2)cc1	-3	1	1	-7	-98	·	i	5
CCCCC(CC)C(=O)Nc1ccc(Nc2ccccc2)cc1 (stereo unspecified)	-3	7	3	-3	6	·	i	-12
CSc1ccccc1NC(=O)c1cc(-c2ccc3c(c2)OCO3)on1	4	5	5	-10	-30	-22	i	-2
CC1CCc2sc(C(=O)OC(C)C(=O)Nc3ncc(Cl)cc3Cl)cc2C1 (stereo unspecified)	4	·	·	1	·	·	i	20
Cc1cc(C)c(OCCCNC2CCCC2)c(Br)c1	46	-3	-6	0	-75	2	i	43
CCN(CC)C(=O)CSc1nnc2c3ccccc3n(C)c2n1	-11	-6	-4	-3	1	-6	i	-9
O=C(CSc1nccn(-c2cccc(F)c2)c1=O)Nc1ccc(Cl)cc1F	-4	-1	0	-3	-23	-7	·	-5
O=CN1CCN(C(=O)c2ccc(Br)o2)CC1	-2	-3	4	1	·	-16	i	0
NC(=S)N/N=C1\CC(n2nnnc2-c2ccccc2Cl)C2COC1O2 (stereo unspecified)	-11	-1	-2	-10	5	·	i	-3
CCN1C(=O)N(C)C(N(O)C(=O)NC)C1(C)C (stereo unspecified)	-8	-1	0	-12	·	0	i	-18
CCOC(=O)CN1NC2(CCCCCCC2)NC1=S	2	1	6	-1	6	·	i	21
CC(=O)c1c(C)n(-c2ccccc2Br)c2ccc(O)cc12	-5	-5	-4	10	34	-8	i	4
CCCCCCN(C(=O)CCCCCN1C(=O)NC(c2ccc(C3CCCCC3)cc2)C(C(=O)OCc2ccccc2)=C1C)C(C(=O)NCCCC)c1ccc(OCC(=O)OC)c(C(=O)OC)c1 (stereo unspecified)	-9	·	·	-2	29	·	i	·
Cc1ccc(/C=N/NC(=O)c2ccc3ccccc3c2)s1	12	2	-9	-2	-230	-27	i	50
O=C(COc1ccccc1)Nc1c(Cl)ccc2nsnc12	-13	2	2	-4	-1	-18	·	-9
Cc1ccccc1-c1nc2cc(NC(=O)C3CC3)ccc2o1	-16	0	-1	2	-189	-11	·	1
C=C(C)CN(CC)C(=O)CC1C(=O)NCCN1C (stereo unspecified)	2	-3	1	3	-4	5	i	-2
Cc1ccc(S(=O)(=O)NCCSc2nncn2C)cc1	4	1	0	9	-1	-19	i	·
Clc1ccc(C2=Nc3cc(Cl)ccc3OC2)cc1	-4	6	1	9	-33	·	i	9
Cc1cc(N2CCN(c3ccccc3)CC2)n2nnnc2n1	-2	4	9	-2	·	-12	i	11
COc1ccc(OC)c(Nc2nc(N)c([N+](=O)[O-])c(NCc3ccccc3)n2)c1	-4	2	-2	5	4	-5	i	16
O=C(O)CCc1ccc(-c2cccs2)n1CC(=O)Nc1ccccc1C(F)(F)F	15	0	-1	0	-9	·	i	0
Cc1ccc(C(=O)O)cc1NC(=O)CCc1c(C)noc1C	·	-1	6	·	34	-12	·	·
CN(C)c1ccc(CNC(=O)C2CCN(S(=O)(=O)c3ccc4c(c3)oc(=O)n4C)CC2)cc1	-2	1	-2	6	-3	-18	i	-2
O=[N+]([O-])c1ccc(N2CCN(S(=O)(=O)c3ccc(Cl)cc3)CC2)cc1NCC1CCCO1 (stereo unspecified)	0	3	-1	3	19	-15	i	·
CC(NC(=O)C(=O)N1CCCCC1)C(c1cccs1)N1CCN(Cc2ccccc2)CC1 (stereo unspecified)	-2	2	6	8	-2	-41	i	-8
O=C(Nc1c(C(=O)N2CCCCC2)cnn1-c1ccccc1)c1ccccc1F	-8	-3	1	-13	6	7	i	-17
COc1cc(-c2nnc(Sc3ccc(C(F)(F)F)cc3[N+](=O)[O-])o2)cc(OC)c1OC	-5	5	-5	6	·	5	i	-2
O=C(NCC(=O)N(c1cccnc1)C(C(=O)NC1CCCC1)c1ccco1)c1cccs1 (stereo unspecified)	-4	4	2	-14	·	-3	i	2

Reprinted from the part before: two compounds, then new ones.
SMILES	eIF4H inh	MT1-MMP act inh	MT1-MMP act inh RFP	PABP polyA inh	HIV Env fusion	Yeast UUG start	Rce1 inh	CSC inhib
COc1cc(-c2nnc(Sc3ccc(C(F)(F)F)cc3[N+](=O)[O-])o2)cc(OC)c1OC	-5	5	-5	6	·	5	i	-2
O=C(NCC(=O)N(c1cccnc1)C(C(=O)NC1CCCC1)c1ccco1)c1cccs1 (stereo unspecified)	-4	4	2	-14	·	-3	i	2
CCc1ccc(NC(=O)C2CCN(S(C)(=O)=O)CC2)cc1	2	-3	5	2	·	-15	i	8
CC(C)NC(=O)CSc1nccc(-c2cccs2)n1	-7	0	5	-2	-6	·	i	10
CN(C)S(=O)(=O)Oc1ccsc1C(=O)Nc1ccc(Br)cc1	-10	2	-3	18	-29	·	i	10
COC(=O)[C@]1(C)CCC[C@@]2(C)C3CC[C@@]4(C)C[C@]3(CCC21)CC(=O)N4 (stereo partly specified)	·	1	-3	·	15	-18	·	-10
CCCCCc1c(O)nc(SCCN2CCOCC2)[nH]c1=O	-9	3	2	4	-3	·	i	3
COc1cccc(CN(C)C(=O)CN2C(=O)NC3(CCCc4ccccc43)C2=O)c1 (stereo unspecified)	·	-1	-2	·	9	-33	·	·
Cc1cc(C(=O)O)ccc1N/C=C1\CCCC(C)C1=O (stereo unspecified)	-2	-2	-1	14	·	-58	i	-8
O=C(C1CCCN(S(=O)(=O)c2cccs2)C1)N1CCN(C2CCCCC2)CC1 (stereo unspecified)	6	6	4	-12	·	-3	i	·
O=C(/C=C/c1cccc([N+](=O)[O-])c1)NCc1cccnc1	12	-4	-2	6	·	-48	·	·
COc1ccc(/C=N/NC(=O)c2sc(C)nc2C)cc1	14	2	-1	-9	-5	·	i	30
C#CCOCCOCCOCCNc1nc(N2CCN(C(=O)CCCCCCCCCCNC(=O)Cn3cc(C[C@@H](C)O)nn3)CC2)nc(N2CCN(C(=O)CCCCCCCCCCNC(=O)[C@H](CCCCN)n3cc(C[C@@H](C)CC)nn3)CC2)n1	·	10	-6	·	·	3	·	89*
COc1ccc(NS(=O)(=O)c2cccc(C(=O)NNC(=O)CNC(=O)c3ccco3)c2)cc1	0	-3	2	-6	20	3	i	-22
O=C(CSc1nnc(-c2cccc(Br)c2)o1)N1CCOCC1	3	-2	-1	14	5	-20	i	-8
O=C(Nc1ccc(C(=O)NC2CCCCC2)cc1)c1cncc(Br)c1	-12	-1	-6	5	5	·	i	-17
COCCN1C(=O)N[C@@H](CCc2ccccc2)[C@@H](C(=O)OC)[C@H]1C	·	-1	2	·	3	10	i	-9
CC(C)Oc1ccc(C(=O)OCC(=O)N2CCCc3ccccc32)cc1	·	2	4	·	·	11	i	-6
c1ccc(-c2cc3ccccc3nc2N2CCCC2)cc1	4	-1	-7	-6	·	-12	i	25
CC1CCCN(c2c([N+](=O)[O-])cc(C(=O)O)cc2[N+](=O)[O-])C1 (stereo unspecified)	-6	-1	1	6	12	·	·	11
CSc1ccc(CNCC2CCCO2)cc1 (stereo unspecified)	-4	0	1	3	-8	-12	i	-20
C=C(C)c1cccc(C(C)(C)NC(=O)NCCCn2ccnc2)c1	-1	3	3	-4	·	-2	i	-11

Single values from above:
In MT1-MMP act inh RFP, c1ccc(-c2cc3ccccc3nc2N2CCCC2)cc1 is listed with -7
In CSC inhib, COc1ccc(NS(=O)(=O)c2cccc(C(=O)NNC(=O)CNC(=O)c3ccco3)c2)cc1 is listed with -22
In MT1-MMP act inh RFP, C#CCOCCOCCOCCNc1nc(N2CCN(C(=O)CCCCCCCCCCNC(=O)Cn3cc(C[C@@H](C)O)nn3)CC2)nc(N2CCN(C(=O)CCCCCCCCCCNC(=O)[C@H](CCCCN)n3cc(C[C@@H](C)CC)nn3)CC2)n1 is listed with -6
In Yeast UUG start, C=C(C)c1cccc(C(C)(C)NC(=O)NCCCn2ccnc2)c1 is listed with -2
In MT1-MMP act inh, CC1CCCN(c2c([N+](=O)[O-])cc(C(=O)O)cc2[N+](=O)[O-])C1 (stereo unspecified) is listed with -1

Following part:
SMILES	eIF4H inh	MT1-MMP act inh	MT1-MMP act inh RFP	PABP polyA inh	HIV Env fusion	Yeast UUG start	Rce1 inh	CSC inhib
COc1ccccc1C(=O)C1CCCN(Cc2cccc3nccnc23)C1 (stereo unspecified)	-6	-4	3	-4	6	-8	i	0
O=C(CSc1cccc(C(F)(F)F)c1)NC(=O)c1ccccc1	-7	-3	-1	-4	-5	·	i	-7
CCOc1cc2[nH]c(=O)n(CCCCCC(=O)NCc3ccco3)c(=O)c2cc1OCC	-10	0	0	-10	-33	-18	i	-6
COC(=O)c1cnn(-c2ccccc2)c1-n1cccc1C=O	-6	-1	3	6	-7	-20	i	-7
Cc1c(P(=S)(c2ccccc2)c2ccccc2)[n+]2ccccc2n1CCc1ccccc1	·	-9	-34	·	14	-34	·	·
CC(=O)c1cccc(NC(=O)N2CCN(S(C)(=O)=O)CC2)c1	-11	-3	-1	3	·	·	i	-16
C/C(=N\NC(=O)c1cc(-c2cccnc2)nc2ccccc12)c1ccc(O)cc1O	25	-1	-8	-17	·	-12	i	100*
Cc1nonc1C1CCCN1C(=O)c1cc(COc2ccc(F)cc2Cl)on1 (stereo unspecified)	-6	-3	-1	5	-18	10	i	-4
Cc1ccccc1C(=O)N1CCC(C(=O)N2CCN(Cc3ccc4c(c3)OCO4)CC2)CC1	·	0	-1	·	4	-5	·	8
CCOC(=O)C(=NO)C1=CSC2=NNC(C)(C)N12	·	3	3	·	-2	-25	·	·
CCOc1ccc(OCCNC2CCCC2)cc1	9	-6	4	2	-35	-7	i	-8
CC(C)C(NC(=O)c1c(F)cccc1F)C(=O)NNC(=O)c1ccccc1 (stereo unspecified)	·	-3	3	·	·	-7	·	-4
CC(=O)Nc1cc(OC(=O)c2ccco2)cc(OC(=O)c2ccco2)c1	-8	0	6	-9	·	·	i	-2
O=C(OCc1ccc(Br)cc1)c1cccnc1	3	5	-2	3	6	8	·	1
COc1cc(CCCN2C(=O)C(=O)NC[C@@H]2Cc2ccc(O)cc2)cc(OC)c1OC	3	1	6	-2	-3	-14	i	-2
C[C@@H]1CCCN1[C@@H]1CS(=O)(=O)N[C@H]1COCc1ccccc1	·	-1	0	·	-50	-8	·	·
CCCc1cc(=O)n2[nH]c(-c3ccccc3)cc2n1	-2	3	5	-3	·	-26	i	1
O=C(COc1ccc2c(c1)CCC2)NCc1ccccc1	-1	-4	-10	7	20	·	i	-19
Cc1ccc(S(=O)(=O)N2CCN(Cc3nc4ccccc4n3C)CC2)cc1	-2	0	-1	-2	·	-31	i	-15
Brc1ccc2ncnc(NCc3ccco3)c2c1	8	-8	-17	1	67*	-8	i	3
NC(=O)CC(NC(=O)Cc1ccc(Br)cc1)c1ccc(N2CCC(Br)CC2)c([N+](=O)[O-])c1 (stereo unspecified)	-3	8	-4	-7	63*	-20	i	14
Cc1ccc(/C=C2/SC(=S)N(CCC(=O)N3CCOCC3)C2=O)cc1	-2	1	-3	-1	-16	-12	i	17
COc1ccc(C(C)=O)cc1COC(=O)[C@H](Cc1ccccc1)NC(=O)c1ccco1	·	-5	-4	·	-9	-3	·	-13
CSc1ncc(CN2CCC(C(=O)Nc3cccc(-c4cscn4)c3)CC2)cn1	4	3	-10	-9	19	-14	·	-13
CN(C)S(=O)(=O)c1cccc(-c2nn(-c3ccccc3)cc2/C=C(/C#N)C(=O)NCc2ccco2)c1	1	3	4	12	-9	·	i	-16
CC(=O)Nc1ccc(S(=O)(=O)N(C#N)c2nc(N(C)C)nc(N(C)C)n2)cc1	-8	-1	5	12	11	-6	i	-14
Clc1ccc(CN2C3=NCCCN3c3ccccc32)c(Cl)c1	-2	-4	-1	-2	-6	-10	i	-11
COc1ccccc1C(=O)NCCC(=O)NCCCSc1ccccc1	·	4	0	·	3	4	i	·
COC(=O)C1=C(C)NC(=O)NC1/C=C/c1ccccc1 (stereo unspecified)	-6	2	-3	2	25	-17	i	6
O=c1[nH]c2cccnc2n1-c1ccc([N+](=O)[O-])cc1	-4	-3	-3	8	10	-7	i	-12

Compound activity: PubChem BioAssay, several laboratories
